# Assay outcomes as filed in PubChem BioAssay.
# eIF4H inh = inhibitors of RNA binding by human eIF4H; 0.94% of 290,000 active; eIF4H fluorescence polarization binding assay; Q15056; inhibition, % at 35 µM; AID 2012;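 active = 50% or more with normal probe brightness, or confirmed in later tests; about a fifth of its hits are not listed in these tables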;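 also: calls also rest on retests at 20 µM and on dose response follow-up; 0% = protein and probe with vehicle and 100% = probe without protein; strong numbers were not always called active; many hits fall short of the cut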
# CSC inhib = cancer stem cell inhibition; 1.1% of 300,000 active; inhibition, % at 7.5 µM; AID 2717; cancer stem cell-like cells viability, luminescence;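 active = mean at 75% or more and at least half the replicates too; tested in HMLE shEcad cells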;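 also: 0% = median of negative and 100% = median of positive control wells; the first replicate is given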
# Env fusion inh = inhibitors of HIV Env-mediated cell fusion; HeLa-JRFL Env/CEM21 cell fusion, luciferase; inhibition, % at 12.3 µM; 1.1% of 360,000 active;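 active = mean replicate inhibition score of at least 50 and every replicate individually at or above 50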;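 also: 0% = plate neutral controls and 100% = maraviroc near 300 nM; one replicate is shown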
# UUG fidelity = alters start codon recognition fidelity in yeast | S. cerevisiae UUG-firefly luciferase reporter, luminescence/redox ratio | activity score, % at 18.7 µM | 0.13% of 350,000 active | AID 602363;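 active = replicate mean at a twofold rise or more, about +100% in these data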;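 also: firefly luciferase made from a UUG start codon reports start codon fidelity; reporter light over untreated wells divided by growth signal over untreated wells; some hits fall short of that in this replicate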
# Rce1 inh = inhibitors of yeast Ras-converting enzyme; Q03530; yeast membranes, quenched prenylated peptide cleavage fluorescence; calls only; 0.27% of 290,000 active; AID 2563;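 active = fall in fluorescence gain of 50% or more versus controls, with final raw signal at or below 3038400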;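 also: plate controls were neutral control wells for no effect and wells lacking membranes for full effect; tested at 10 µM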
# PABP polyA inh = PABP-poly(A) binding inhibition; P11940; 1% of 290,000 active; PABP-poly(A) RNA binding, fluorescence polarization; inhibition, % at 35 µM;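 active = 50% or more with normal probe brightness, or confirmed in later tests; about a fifth of its hits are not listed in these tables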;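 also: calls also rest on retests at 20 µM and on dose response follow-up; controls were probe without protein and protein plus probe with vehicle; some compounds called inactive have numbers as strong as hits; many hits fall short of the cut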
# Target sequence (P11940 whole entry, looked up): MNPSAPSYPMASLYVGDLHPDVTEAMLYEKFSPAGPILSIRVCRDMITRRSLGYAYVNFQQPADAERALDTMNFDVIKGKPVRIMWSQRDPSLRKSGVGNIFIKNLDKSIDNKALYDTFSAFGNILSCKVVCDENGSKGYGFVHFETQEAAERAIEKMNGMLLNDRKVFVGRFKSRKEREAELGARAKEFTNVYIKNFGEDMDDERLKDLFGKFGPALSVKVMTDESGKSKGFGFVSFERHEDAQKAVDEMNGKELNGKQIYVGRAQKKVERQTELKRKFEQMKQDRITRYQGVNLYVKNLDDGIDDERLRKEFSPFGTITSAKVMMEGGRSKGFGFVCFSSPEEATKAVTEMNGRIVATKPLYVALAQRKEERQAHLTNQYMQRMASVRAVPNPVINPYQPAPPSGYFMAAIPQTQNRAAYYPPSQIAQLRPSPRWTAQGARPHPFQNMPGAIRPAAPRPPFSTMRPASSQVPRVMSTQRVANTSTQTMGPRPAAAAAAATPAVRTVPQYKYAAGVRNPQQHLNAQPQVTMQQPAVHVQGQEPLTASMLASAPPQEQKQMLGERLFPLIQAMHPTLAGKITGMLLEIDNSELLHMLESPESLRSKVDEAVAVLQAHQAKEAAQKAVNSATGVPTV
# MT1-MMP act inh = MT1-MMP (human) activation inhibition | P50281 | HT1080 RFP-PRO-GFP cells, GFP/RFP ratio fluorescence, overnight; percent of plate control window, DMSO zero | GFP/RFP ratio change, % at 20 µM | 0.061% of 360,000 active;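 active = GFP/RFP ratio change of at least 30% with cell ATP level not reduced by more than half and red fluorescence within 50% of control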; also: strong numbers were not always called active
#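 Assay system: RFP-PRO-GFP reporter HT1080 cells; read-out basis: GFP/RFP fluorescence ratio; benchmarks: DMSO wells and RFP-L50D-GFP cells; doses: 20 µM single dose, 1% DMSO; schedule: overnight cell settling, then overnight compound exposure, 37 °C, 5% CO2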
# MT1-MMP act inh RFP = recorded beside MT1-MMP act inh, whose call it bears; RFP signal change, %; measured here: RFP expression control read;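 0 = vehicle wells; hits needed this value within 50% of zero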
# Active calls of the source: *; i = inactive; . = not tested or not shown; & = joins results of further samples.
SMILES,eIF4H inh,CSC inhib,Env fusion inh,UUG fidelity,Rce1 inh,PABP polyA inh,MT1-MMP act inh,MT1-MMP act inh RFP
COCCCN1C(=O)C(=O)/C(=C(/O)c2ccc(S(=O)(=O)N3CCCCC3)cc2)C1c1ccc(O)cc1 (stereo unspecified),-8,1,-3,-19,i,8,2,2
O=C1CC(c2ccccc2)CC(O)=C1C=NC1CCCCC1 (stereo unspecified),-9,3,.,-6,i,0,8,1
CCCN(CCC)CCNC(=O)C1CCN(Cc2nc(-c3ccc(Cl)cc3)oc2C)CC1,-2,7,37,-7,i,10,7,1
Cc1n[nH]c(=O)n1-c1cccc(C(F)(F)F)c1,-4,0,-87,-18,i,-8,3,-2
CCOc1ccc(/C=N/NC(=O)c2ccc(O)cc2)cc1CN1CC2CC(C1)c1cccc(=O)n1C2 (stereo unspecified),.,9,.,5,.,.,-1,4
CN(Cc1ccnc2ccccc12)C(=O)C1CCC(=O)N(Cc2ccccc2F)C1 (stereo unspecified),1,-23,.,9,i,12,1,-2
CNC(=S)NC1CC2CCCC(C1)N2Cc1ccc(C)cc1 (stereo unspecified),-5,-17,18,-28,i,-4,1,4
O=C(N=Nc1c(O)[nH]c2ccc(Br)cc12)c1cc(-c2cccs2)nc2ccccc12,3,.,28,-32,i,-9,4,-1
COc1ccc(S(=O)(=O)N2CCN(CC(=O)Nc3ccccc3OC)CC2)cc1,5,11,-6,-14,i,7,-6,1
NS(=O)(=O)c1ccc(CNS(=O)(=O)c2cc(Cl)ccc2Cl)cc1,0,13,9,.,i,12,-2,-2
CCC(=O)Nc1cccc(C(=O)c2ccccc2)c1,-5,-4,.,-7,i,-13,-4,-1
NC(=O)CCC(NC(=O)c1ccc(Cl)cc1)C(=O)O (stereo unspecified),-10,-14,17,.,i,5,-2,2
C[C@@H]1CCCCO[C@H](CN(C)Cc2ccc(C(=O)O)cc2)[C@@H](C)CN([C@H](C)CO)C(=O)c2cc(NC(=O)CCC(F)(F)F)ccc2O1,.,.,23,4&-5,.,.,-1,6
CCOC(=O)c1ccccc1-c1csc(NS(=O)(=O)c2ccc(Cl)cc2)n1,5,9,-82,-5,i,-4,6,5
COc1ccc(CCC(=O)Nc2nnc(C)s2)cc1,.,13,-2,-25,.,.,1,-2
O=C1CC(C(F)(F)C(F)(F)C(F)(F)C(F)F)=Nc2ccccc2N1,3,-6,.,-22,i,-1,8,-2
CC(=O)N(CC#CCN(C(C)=O)c1ccccc1)c1ccccc1,.,.,1,0,.,.,-3,6
CC(NC(=O)c1ccccc1F)c1nnc(SCc2nc3ccccc3c(=O)[nH]2)n1C (stereo unspecified),6,-10,-7,-13,i,16,-2,3
COc1cccc(CN2CCC(Oc3ccc(C(=O)N4CCCCC4)cc3)CC2)c1O,-4,6,-2,-12,i,-10,0,4
COc1cc2ncnc(NCc3ccc(Cl)cc3)c2cc1OC,-3,36,16,.,i,-9,5,1
Cn1c(CSCc2ccccc2Cl)n[nH]c1=S,3,-8,-3,-20,i,12,7,0
CN(C)c1ccc(C2Nc3cccc4cccc(c34)N2)cc1,7,-13,-8,15,i,2,2,5
Cc1ccc(C)c(S(=O)(=O)N2CCNCC2)c1,9,-4,-11,.,i,-9,-11,-3
Cc1cc(=O)[nH]c(N/N=C/c2cc(C)n(CC(F)(F)F)c2C)n1,10,20,40,-26,i,-5,-6,0
CCc1ccc(S(=O)(=O)NCc2cn3ccsc3n2)s1,14,-7,9,.,i,-5,-2,-4
CC(=O)c1ccc(NC(=O)Nc2ccccc2)cc1,-1,11,.,2,i,-5,-4,2
Cc1ccccc1C(=O)NCC(=O)O,-9,-4,-24,1,i,-4,-10,-3
CN(C)C(=O)c1ccc(NC(=O)CC2SC(N3CCCC3)=NC2=O)cc1 (stereo unspecified),.,7,7,-11,i,.,6,3
COc1ccc(C(=O)NCC(=O)c2ccccc2)cc1,-1,5,-72,-22,i,9,-3,0
Cc1cc(=O)oc(C)c1C(=O)Nc1cccc2ccccc12,-2,-7,-25,19,i,2,2,-5
Cc1ccc(S(=O)(=O)N2CCN(C(=O)COC(=O)CCc3ccccc3)CC2)c(C)c1,.,.,5,-6,.,.,-2,3
COc1ccc(C(=O)NCc2nnc(SCC(=O)N3CCCc4ccccc43)o2)cc1OC,-3,-13,7,.,.,28,-1,4
COc1ccc(/C=N/NC(=O)c2cccc([N+](=O)[O-])c2)cc1O,1,7,-6,.,i,2,-1,-4
CN(C)c1ccc(N=Cc2cccn2C)cc1,-8,.,-104,-43,i,-1,39*,31*
CCn1c(SCC(=O)NCC2CCCO2)nnc1-c1ccccc1 (stereo unspecified),2,-8,.,-15,i,-2,5,4
COc1ccc(CCNC(=O)C(C)OC(=O)c2ccco2)cc1OC (stereo unspecified),-3,-9,-24,-12,i,-3,4,5
Cc1ccc(C)c(N2CCN(C3CCCC(C)C3)CC2)c1 (stereo unspecified),-8,1,12,-13,i,2,4,7
COc1ccc(CSc2nnnn2-c2ccc(C(N)=O)cc2)cc1[N+](=O)[O-],-3,.,3,-17,i,-3,0,-1
Cc1ccc(NC(=O)Cc2nc(COC(=O)Cc3cccc(C(F)(F)F)c3)cs2)cc1,.,.,-4,-1,.,.,-5,2
Cc1ccccc1CN1CCN(S(=O)(=O)c2ccc(F)cc2)CC1,1,-9,-62,-7,i,-10,-7,-3
COc1cc(CNCc2ccco2)cc(OC)c1O,1,-7,13,-12,i,-3,5,4
CN1/C(=C\C(=S)NC(=O)c2ccccc2Cl)C(C)(C)c2ccccc21,13,57,34,-7,i,0,53,65
Cc1ccc(C(=O)NN(C)c2nc3ccccc3nc2C(F)(F)F)cc1,-10,54,.,1,i,-3,-6,-15
CN(C)c1ccc(CNc2ncnc3sccc23)cc1,-4,-2,24,-6,i,-1,6,-29
Nc1nonc1-c1nc2ccccc2n1CC(=O)N1CCCCC1,2,-7,.,-3,i,2,1,-1
O=C(CN(C(=O)Cn1nnc(-c2ccc(F)cc2)n1)c1cccc(F)c1)NC1CCCC1,-3,-14,12,-9,i,-6,1,-2
COc1ccc(N2CCN(C(=O)c3ccc(OCc4c(C)noc4C)c(OC)c3)CC2)cc1,-8,-1,.,.,i,2,5,-1
Cc1ccc(CN(CC(=O)NCCc2ccccc2)C(=O)c2csnn2)cc1,-4,-1,2,-28,i,-2,1,2
COc1ccccc1OCc1nnc(SCC(N)=O)n1-c1ccccc1,-2,18,11,-6,i,-2,-1,-1
COc1ccccc1NC(=O)CSc1nnc(COc2ccc(Cl)cc2)o1,4,.,2,-4,i,-3,-2,-2

# Continuation.
SMILES,eIF4H inh,CSC inhib,Env fusion inh,UUG fidelity,Rce1 inh,PABP polyA inh,MT1-MMP act inh,MT1-MMP act inh RFP
CC(=O)Nc1cccc(NC(=O)C2CCCN2C(=O)Nc2ccc(Cl)cc2)c1 (stereo unspecified),-6,-14,-55,-15,i,-12,4,3
CC(C)CN(C(=O)COC(=O)c1cncc(Br)c1)c1c(N)n(Cc2ccccc2)c(=O)[nH]c1=O,-7,-2,4,1,i,12,-3,0
O=C(c1[nH]c(C(F)(F)F)nc1-c1ccccc1)N1CCc2ccccc2C1,.,.,21,1,.,.,1,5
CCn1nc(NS(=O)(=O)c2ccc([N+](=O)[O-])cc2)c2cc3ccccc3nc21,3,2,1,-12,i,8,2,3
COc1cccc(-c2csc(N3CCN(CC(=O)NNC(=O)c4ccc(Br)cc4)CC3)n2)c1,-5,-8,.,15,i,-1,3,-11
O=C1c2ccccc2C(=O)N1CCn1ccnc1,-4,-13,6,-23,i,-2,2,0
CN1CCN(c2cnn(-c3ccccc3)c(=O)c2Br)CC1,-7,-4,-23,-7,i,-7,-3,3
Cc1ccccc1C(=O)c1c[nH]c(C(=O)NCc2cccs2)c1,6,0,.,-9,i,-7,-9,-5
COc1ccc(-c2c[nH]c(=O)[nH]c2=O)cc1OC,0,0,-38,-12,i,-1,2,5
CCOC(=O)c1[nH]c(=S)n(-c2ccccc2)c1C(=O)OCC,.,.,-6,-13,.,.,7,8
Cc1nn(CCC(=O)NNC(=S)Nc2ccc(Cl)cc2)c(C)c1[N+](=O)[O-],-1,2,-17,-23,i,-14,4,3
COc1ccc(C(=O)Nc2ccccc2NC(=O)c2ccc(OC)cc2)cc1,.,2,-17,-8,.,.,-1,-2
OC(COc1ccc(CNCCc2ccccc2F)cc1)CN1CCCCC1 (stereo unspecified),0,103*,-13,.,i,23,0,2
CCN(CC)c1ccc2c(Nc3ccccc3)c(C=O)c(=O)oc2c1,11,-1,25,-13,i,-8,-4,-7
CC(C)Oc1ccc(C(=O)Nc2cccc(S(=O)(=O)N3CCCC3)c2)cc1,.,-10,39,-4,.,.,4,-20
COc1ccc(CN2CCN(Cc3ccco3)CC2)c(OC)c1,8,-5,-2,2,i,2,5,2
CC1CCN(C(=O)CSCC(=O)Nc2nc(-c3cccs3)cs2)CC1,-9,-7,1,5,i,-11,7,5
CCOc1ccc(Cc2c(O)nc(SC)[nH]c2=O)cc1,.,.,-54,-20,.,.,3,5

# By substructure: the entries above containing an NH in an aromatic ring (11)
SMILES,eIF4H inh,CSC inhib,Env fusion inh,UUG fidelity,Rce1 inh,PABP polyA inh,MT1-MMP act inh,MT1-MMP act inh RFP
Cc1n[nH]c(=O)n1-c1cccc(C(F)(F)F)c1,-4,0,-87,-18,i,-8,3,-2
O=C(N=Nc1c(O)[nH]c2ccc(Br)cc12)c1cc(-c2cccs2)nc2ccccc12,3,.,28,-32,i,-9,4,-1
CC(NC(=O)c1ccccc1F)c1nnc(SCc2nc3ccccc3c(=O)[nH]2)n1C (stereo unspecified),6,-10,-7,-13,i,16,-2,3
Cn1c(CSCc2ccccc2Cl)n[nH]c1=S,3,-8,-3,-20,i,12,7,0
Cc1cc(=O)[nH]c(N/N=C/c2cc(C)n(CC(F)(F)F)c2C)n1,10,20,40,-26,i,-5,-6,0
CC(C)CN(C(=O)COC(=O)c1cncc(Br)c1)c1c(N)n(Cc2ccccc2)c(=O)[nH]c1=O,-7,-2,4,1,i,12,-3,0
O=C(c1[nH]c(C(F)(F)F)nc1-c1ccccc1)N1CCc2ccccc2C1,.,.,21,1,.,.,1,5
Cc1ccccc1C(=O)c1c[nH]c(C(=O)NCc2cccs2)c1,6,0,.,-9,i,-7,-9,-5
COc1ccc(-c2c[nH]c(=O)[nH]c2=O)cc1OC,0,0,-38,-12,i,-1,2,5
CCOC(=O)c1[nH]c(=S)n(-c2ccccc2)c1C(=O)OCC,.,.,-6,-13,.,.,7,8
CCOc1ccc(Cc2c(O)nc(SC)[nH]c2=O)cc1,.,.,-54,-20,.,.,3,5
